Screening results from PubChem.
TSHR ag – qHTS Assay for Agonists of the Thyroid Stimulating Hormone Receptor | Thyrotropin receptor (Homo sapiens), P16473 | HEK293-CNG-TSHR cells (CNG channel as cAMP sensor), membrane potential dye, cAMP | Potency, µM (highest dose often 57.1 µM), without a hit: top-dose activation, hits mostly activators | 0.48% of 73,000 active | AID 926, 2007; active = well fitted activation curve of enough size with the parental cells flat; inconclusive = any curve in the parental cells; inactive = parental cells flat and receptor cells flat or falling; also: potency is read from the fitted curve at half-maximal effect; % of control where 0% means no effect; weak receptor curves with flat parental cells got no call and are not listed
Target sequence (P16473 whole entry, looked up): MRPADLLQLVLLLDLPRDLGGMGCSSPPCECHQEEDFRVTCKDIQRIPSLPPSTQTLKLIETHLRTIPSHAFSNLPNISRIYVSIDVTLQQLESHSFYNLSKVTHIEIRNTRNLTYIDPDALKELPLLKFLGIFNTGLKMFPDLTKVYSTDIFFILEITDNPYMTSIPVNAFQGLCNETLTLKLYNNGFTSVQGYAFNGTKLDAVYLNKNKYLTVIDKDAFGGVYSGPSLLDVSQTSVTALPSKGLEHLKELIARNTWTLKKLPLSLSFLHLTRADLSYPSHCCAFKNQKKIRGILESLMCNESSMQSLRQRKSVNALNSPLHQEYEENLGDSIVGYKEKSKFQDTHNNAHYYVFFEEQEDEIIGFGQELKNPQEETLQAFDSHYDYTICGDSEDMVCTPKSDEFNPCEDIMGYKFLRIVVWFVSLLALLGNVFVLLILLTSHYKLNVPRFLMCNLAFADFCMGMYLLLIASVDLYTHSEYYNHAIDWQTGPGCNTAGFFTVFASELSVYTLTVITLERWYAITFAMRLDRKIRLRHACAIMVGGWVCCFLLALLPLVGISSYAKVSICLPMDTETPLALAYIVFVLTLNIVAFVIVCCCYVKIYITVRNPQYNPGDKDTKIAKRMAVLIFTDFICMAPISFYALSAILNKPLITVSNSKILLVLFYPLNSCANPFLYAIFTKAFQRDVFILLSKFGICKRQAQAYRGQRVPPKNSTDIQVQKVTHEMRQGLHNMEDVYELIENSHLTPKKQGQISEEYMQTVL
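cAMP rise detected as CNG-channel membrane depolarization by fluorescent dye (emission 590 nm), 30 min after compound, following 60 min dye loading containing 100 uM RO 20-1724 at room temperature. Cells: TSHR/CNG HEK 293, with parental CNG HEK 293 as control.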
Resorufin autofl – qHTS Assay for Spectroscopic Profiling in Resorufin Spectral Region | Compound fluorescence, resorufin region 547/598 nm, buffer; active compounds read high | max dye-equivalent concentration, M | 0.04% of 59,000 active; active = above 10 nM dye equivalent; inconclusive = 1 to 10 nM; inactive = 1 nM or less; a few of its hits are not listed in these tables; also: highest value over a series up to 38 µM
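Compounds in 100 mM Tris buffer, pH 8.0, incubated 15 min at room temperature, then read with 547 nm excitation and 598 nm emission filters. Fluorescence was converted to dye-equivalent concentration using an on-plate six-point resorufin standard curve.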
A488 autofl – qHTS Assay for Spectroscopic Profiling in A488 Spectral Region. compound autofluorescence, A488 spectral region, dye equivalency; active compounds read high. max dye equivalency, M. 0.1% of 59,000 active. AID 591, 2007; active = above 10 nM dye equivalent; inconclusive = 1 to 10 nM; inactive = 1 nM or less; about half of its hits are not listed in these tables;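 also: highest value over a series up to 38 µM; compound alone in buffer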
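Read-out: relative fluorescence at 480/540 nm, expressed as Alexa 488 dye-equivalent concentration from a six-point A488 standard included per plate. Conditions: 100 mM Tris, pH 8.0; 15 min incubation, room temperature.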
AID923 – qHTS Assay for Allosteric/Competitive Inhibitors of Caspase-1: Spectroscopic Profiling in AFC Spectral Region | AID 923, 2007 | compound fluorescence, AFC spectral region (405/520 nm); almost no hit is shown here | Potency, µM (highest dose often 57.5 µM), for the others: at the highest dose fluorescence increase, hits mostly activators | 1.1% of 75,000 active; active = well fitted activation curve with a large enough effect; inconclusive = small, poorly fitted or top-dose-only effect;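 also: potency is read from the fitted curve at half-maximal effect; 0% is about no effect; scaled to a free AFC standard on each plate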
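Titrations up to 57 uM read every 20 sec for 3 min (405/520 nm) with 50 nM caspase 1 and 5 uM Ac-WEHD-AFC, pH 7.5 HEPES buffer. Fluorescence-vs-time intercept gave baseline, scaled against on-plate AFC standard.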
A647 autofl – qHTS Assay for Spectroscopic Profiling in A647 Spectral Region; Compound fluorescence, A647 channel (570/671 nm), Tris buffer; 59,000 tested, under 10 active; max dye-equivalent concentration, M; active means above 1 µM dye equivalent; inconclusive means 0.1 to 1 µM; inactive means 0.1 µM or less;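 also: values scaled relative to a standard on each plate; highest value over a series up to 38 µM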
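Buffer was dispensed, compounds and Alexa 647 standards were pin-transferred, and plates sat 15 min at room temperature. Intensity at 570/671 nm was then converted to dye-equivalent concentration using the plate's A647 standard curve.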
An asterisk follows results filed as active; i = inactive; u = inconclusive; x = not tested or not shown; & = joins results of further samples; [ ] = remark or other dose.

Every second line gives: TSHR ag | Resorufin autofl | A488 autofl | AID923 | A647 autofl
N#Cc1nc(Cc2cccc3ccccc23)oc1N1CCC(C(N)=O)CC1
    8% | i | i | 0.9% | 1.2e-08
COCCn1c(=O)c(-c2cn(C)c3ccccc23)nc2cnc(N3CCNCC3)nc21
    4% | i | i | 17% | 1e-09
COc1ccc(OC)c(S(=O)(=O)N2CCCc3ccccc32)c1
    u | x | x | 1.1% | x
CCOC(=O)COc1cccc2c(=O)n(CC(=O)NCc3ccc4c(c3)OCO4)ccc12
    15% | x | x | -3.4% | x
Cc1cc(C(=O)Nc2c(C)nn(Cc3c(Cl)cccc3Cl)c2C)no1
    4% | i | i | 0.0% | 7.5e-09
COc1cc(C(=O)Nc2ccc3c(c2)OCCO3)ccc1-n1cnnn1
    -4% | i | i | -2.0% | 4.2e-08
O=C(C1CCN(S(=O)(=O)c2cccc3cccnc23)CC1)N1CCN(c2ccccn2)CC1
    -4% | i | i | -0.6% | 8.7e-09
COc1ccc(NC(=O)C(C)Oc2ccc(/C(C)=N\O)cc2)cc1 (stereo not given)
    15% | i | i | 1.9% | 6.2e-09
CCN1CCN(c2ncnc3c2oc2nc(C(C)C)c4c(c23)CCC4)CC1
    -1% | i | i | 0.3% | 4.1e-08
CCOC(=O)c1c(C)[nH]c(C(=O)Nc2ccc3c(c2)OCO3)c1C
    -16% | i | i | -0.5% | 1.1e-08
COCC(=O)Nc1nc2n(n1)C(c1ccccc1Cl)CC(c1ccc(OC)cc1)N2 (stereo not given)
    2% | i | i | 3.5% | 2.5e-09
N#Cc1cn(Cc2ccccc2)c2ccccc12
    u | i | i | 0.1% | 1e-09
Cc1ccc2c(CC(=O)NCC3COc4ccccc4O3)coc2c1 (stereo not given)
    u | i | i | 0.9% | 1.4e-08
S=c1[nH]nc(COc2ccc3c(c2)OCO3)n1-c1ccccc1
    -9% | i | i | -0.6% | 1.2e-08
O=C(CSc1nc2ccccc2o1)Nc1ccccc1N1CCCCCC1
    29% | i | i | -1.1% | 3.7e-09
O=C(CSc1nc2c(cnn2-c2ccc(F)cc2)c(=O)[nH]1)N1CCCCC1
    1% | x | x | 1.1% | x
CCCNc1nc(N2CCOCC2)nc(N2CCOCC2)n1
    6%[11.4 µM] | x | x | 0.9% | x
O=C(NCc1ccco1)Nc1cccs1
    3%[11.4 µM] | i | i | 9.7% | 4.2e-08
CCOCCCNC(=O)CSc1ccccc1
    1% | i | i | -2.3% | 1e-09
Cc1ccc(-c2nn(-c3ccccc3)cc2/C=C(\C#N)c2cccc(C#N)c2)o1
    28% | i | i | 19% | 9.4e-09
C=CCn1c(SCC(=O)NCCCC)nc2scc(-c3ccco3)c2c1=O
    u | i | i | 1.8% | 3.2e-08
CC(=O)c1c(C)[nH]c(C(=O)OCn2nnc3ccccc3c2=O)c1C
    8% | i | i | -4.4% | 1e-09
CCCCc1c(O)nc(SCC(=O)NCC2CCCO2)[nH]c1=O (stereo not given)
    3% | i | i | -0.5% | 1e-09
CC(=O)c1c(C)[nH]c(C(=O)COC(=O)CNS(=O)(=O)c2ccccc2)c1C
    -2% | i | i | 1.3% | 6.8e-09
COc1cccc(NC(=O)N2CCN(c3ccc(C(F)(F)F)cn3)CC2)c1
    8% | i | i | 3.0% | 2.5e-08
c1ccc2c(N3CCNCC3)nc(-c3ccoc3)nc2c1
    5% | i | i | 3.1% | 1e-09
CCOc1ccc(C)cc1S(=O)(=O)NC1CCCCC1
    x | i | i | -0.6% | 8.9e-09
CN(CCCC(=O)Nc1ccncc1)S(=O)(=O)c1ccc(Cl)cc1
    24% | i | i | 0.2% | 1e-09
C=CCC1C=CC(OC(=O)OCC)C(COC(=O)OCC)O1 (stereo not given)
    -2%[11.4 µM] | x | x | 1.7%[11.5 µM] | x
Cc1ccc(NS(=O)(=O)c2ccc(OCC(=O)NCc3ccco3)cc2)cc1
    x | i | i | 1.0% | 3.6e-08

Next part, starting with the last four of the part before.
Every second line gives: TSHR ag | Resorufin autofl | A488 autofl | AID923 | A647 autofl
CCOc1ccc(C)cc1S(=O)(=O)NC1CCCCC1
    x | i | i | -0.6% | 8.9e-09
CN(CCCC(=O)Nc1ccncc1)S(=O)(=O)c1ccc(Cl)cc1
    24% | i | i | 0.2% | 1e-09
C=CCC1C=CC(OC(=O)OCC)C(COC(=O)OCC)O1 (stereo not given)
    -2%[11.4 µM] | x | x | 1.7%[11.5 µM] | x
Cc1ccc(NS(=O)(=O)c2ccc(OCC(=O)NCc3ccco3)cc2)cc1
    x | i | i | 1.0% | 3.6e-08
Cc1cc(=O)oc2c1c(C)nn2-c1nn[nH]n1
    -7% | i | i | -1.8% | 1e-09
CN(c1ccc(C(=O)O)cc1)S(=O)(=O)c1ccc(Cl)cc1
    -5% | i | i | -0.9% | 1.2e-09
COc1ccc(OC)c(NC(=O)C2CCCCC2C(=O)O)c1 (stereo not given)
    -2% | i | i | -1.2% | 3.5e-08
CCCCNC(=O)C1CCCN(S(=O)(=O)c2ccc(-n3cnnn3)cc2)C1 (stereo not given)
    2% | i | i | 1.6% | 4.2e-08
CC(C)C[C@H]1C(=O)N2CCC[C@@H]2[C@]2(O)O[C@](NC(=O)[C@H]3C=C4c5cccc6[nH]c(Br)c(c56)C[C@H]4N(C)C3)(C(C)C)C(=O)N12
    -9%[25.6 µM] | i | i | 8.9%[25.7 µM] | 1.5e-09&8.5e-09
CC(=O)N(C[C@@H](C)C(=O)O)c1c(I)cc(I)c(N)c1I
    2%[25.6 µM] | i | i | -2.2%[25.7 µM] | 1.7e-08
O=C(NCc1ccc2c(c1)OCO2)c1ccccn1
    2% | i | i | 1.4% | 1e-09
CCOc1ccc(OCC)c(NC(=O)C2CCCN(c3nc(C)cc(C)n3)C2)c1 (stereo not given)
    -8% | i | i | -2.0% | 2.3e-09
CCOc1cccc(NC(=O)C2CC(=O)N(C)C2)c1 (stereo not given)
    -1% | i | i | 0.8% | 2.6e-08
C=CCNc1nc2c(c(=O)[nH]c(=O)n2C)n1Cc1cccc(C)c1
    -4% | x | x | -1.9% | x
Cc1ccc(S(=O)(=O)CCC(=O)OCC(=O)N2CC(=O)Nc3ccccc32)cc1
    18% | i | i | 0.8% | 6.5e-09
COc1nc(NC23CC4CC(CC(C4)C2)C3)nc(OC)n1
    u | x | x | -1.8% | x
COc1ccc(N2CCN(C(=O)C(OC(C)=O)c3ccccc3)CC2)cc1 (stereo not given)
    7% | i | i | -0.2% | 2.8e-08
c1ccc2c(c1)oc1c(N3CCOCC3)ncnc12
    5% | i | i | -0.4% | 4.7e-09
CC(C)[C@H](NC(=O)NCCc1ccc(Cl)cc1)C(=O)O
    16% | i | i | 3.1% | 2e-08
COC(=O)c1sc(=S)sc1C(=O)OC
    u | i | i | 0.1% | 4.1e-09
CSCCC(CO)NC(=O)OCc1ccccc1 (stereo not given)
    x | i | i | x | 1e-09
O=C1Nc2ccccc2C12OCCS2 (stereo not given)
    2% | i | i | 1.2% | 9.3e-09
Oc1ccc(Cn2c(-c3ccc(O)cc3)nc3ccccc32)cc1
    5%[11.4 µM] | i | i | 0.0%[11.5 µM] | 1e-09
O=C1c2ccccc2C(=O)c2c(NC3CCCCC3)ccc(Nc3ccc(S(=O)(=O)O)cc3)c21
    -3%[11.4 µM] | u | i | 1.4%[11.5 µM] | 3.3e-08
N#CCCn1cc(C(CC(=O)c2ccc(Br)cc2)C(=O)O)c2ccccc21 (stereo not given)
    6% | x | x | 3.9% | x
CCN(CC)C(=O)CN(C#N)c1nc(NC(C)C)nc(NC(C)C)n1
    x | i | i | x | 7.6e-08
CCOc1ccc2nc(N3CCCC(C(=O)NCCCN4CCOCC4)C3)sc2c1 (stereo not given)
    u | x | x | -1.1% | x
CC(SCC(=O)Nc1ccc(S(=O)(=O)N2CCCCC2)cc1)C(=O)O (stereo not given)
    -1% | i | i | 0.5% | 6.9e-09
NCCCCCCNS(=O)(=O)c1ccc2c(Cl)cccc2c1
    3% | x | x | -0.8% | x
CSc1nc2c(c(=O)n1-c1ccc(C)cc1)SCC2
    7% | i | i | -0.8% | 2.1e-08
Cc1cccc2cc(CN(Cc3nnnn3Cc3ccccc3)C3CCCC3)c(=O)[nH]c12
    u | i | i | 12% | 5.7e-08
C=CCSc1nc2c(cc1C#N)CCC2
    u | i | i | 2.4% | 1e-09
COc1ccccc1NC(=O)CNC(=O)c1ccccc1
    -15% | i | i | -0.5% | 9.5e-09
CCSc1nnc(-c2ccc(OC)cc2)o1
    2% | i | i | -0.8% | 1.1e-08
CCn1c(COc2cccc(C)c2)nnc1SCC(=O)Nc1cccc(C(=O)OC)c1
    u | i | i | 1.1% | 5.1e-09
COc1ccccc1-c1cc(C(F)(F)F)nc(S(=O)(=O)CCCC(=O)NC(C)C)n1
    8% | i | i | 2.6% | 2.9e-09
c1ccc(Nc2nc(N3CCOCC3)nc(N3CCOCC3)n2)cc1
    6% | x | x | 1.7% | x
Nc1c2c(nc3ccccc13)N(c1ccccc1)CC2
    x | i | i | x | 7.6e-08
CC(=O)Oc1ccc(/C=c2\sc3ncnn3c2=O)cc1
    -6% | i | i | 2.5% | 2.1e-08
Cc1ccc(C)c(O)c1
    -8% | x | x | -0.7% | x
CC(=O)NCC(=O)OC(C)C(=O)Nc1ccc(C(C)=O)cc1 (stereo not given)
    0% | i | i | 2.0% | 6.2e-08
O=C1OCc2cc(NS(=O)(=O)c3cccs3)ccc21
    -5% | i | i | -1.4% | 4.2e-09
N#Cc1ccc(CN2CCC3(CC2)CCN(C(=O)c2csnn2)CC3)cc1
    u | i | i | 0.4% | 2.6e-09
CCN1CCCC1CNC(=O)Cn1cnc2sc(C)c(S(=O)(=O)N3CCC(C)CC3)c2c1=O (stereo not given)
    2% | i | i | -0.5% | 8.5e-09
Cn1c(=O)cc(SCC(=O)NCC2COc3ccccc3O2)c2ccccc21 (stereo not given)
    7%[11.4 µM] | i | i | -0.7% | 5.2e-09
CC(O)c1cccc(NC(=O)CCC(=O)O)c1 (stereo not given)
    -2%[11.4 µM] | x | x | 0.4% | x
Cc1noc(C)c1CSc1nc2ccccc2c(=O)n1-c1ccc(F)cc1F
    u | i | i | -0.2% | 1.4e-08
CCOc1ccc(OCC)c2sc(C)nc12
    7% | i | i | 1.8% | 3.1e-09
COc1ccc(CN(CC(=O)NCc2ccco2)C(=O)CCC(=O)Nc2nccs2)cc1
    8% | i | i | 1.1% | 3.7e-08
C=CCOC(=O)C(C(C)=O)C(NC(=O)OC)c1ccc(F)cc1 (stereo not given)
    2%[11.4 µM] | x | x | 0.5%[11.5 µM] | x
O=C(Cn1cnc2c(oc3ccccc32)c1=O)c1ccccc1
    3% | i | i | 2.2% | 1.2e-08
CN(C)c1ncc2nc(CCc3ccccc3)c(=O)n(Cc3ccc(F)cc3)c2n1
    u | i | i | 4.6% | 1e-09
NC(=O)CSc1nnc(-c2ccc(S(=O)(=O)N3CCOCC3)cc2)n1CC1CCCO1 (stereo not given)
    0% | i | i | -0.9% | 4.7e-09
CCN=C1SC(CC(=O)Nc2sc3c(c2C#N)CCCC3)C(=O)N1CC (stereo not given)
    6% | i | i | -0.7% | 1.5e-08
COCCOC(=O)C1=C(C)Nc2ncnn2C1c1ccc(F)cc1 (stereo not given)
    2% | i | i | 0.6% | 7.4e-09
Cc1ccc2oc3c(c(=O)c2c1)C(c1cccs1)N(CCCN(C)C)C3=O (stereo not given)
    2% | x | x | 0.4% | x

Not all compounds are listed; count on the stated rates, not on these rows.
